# Assay outcomes: PubChem, SRMLSC
# H5N1 CPE – MDCK cell protection from H5N1 avian flu. inhibition, % at 50 µM. 96,000 tested, 0.07% active. cytopathic effect, luminescence, 72 h; active compounds read high; no value below 0 was filed and about half of the inactive calls have no number; reference of the scale not given here; in the data active = inhibition above about 25%
# Starred values were filed as active, the others as inactive; i = inactive; & = joins results of further samples.
SMILES,H5N1 CPE
CCCOC(=O)CCc1n[nH]c(=O)[nH]c1=O,0.6
COc1ccc(NC(=O)C2CCCN2S(=O)(=O)c2ccc(C)cc2)cc1 (configuration not stated),i
CCOC(=O)c1nnn(-c2nonc2NC(C)=O)c1C,i
O=C(CSc1cccc2cccnc12)OCC(=O)c1ccc(Br)cc1,i
CCN1C(=O)CC(N2CCC(C(=O)N3CCOCC3)CC2)C1=O (configuration not stated),i
COC(=O)c1ccc(NC(=O)Nc2ccc(F)c(Cl)c2)cc1,i
CCCSC1=C(C#N)C(c2cccnc2)C(C(=O)OCC)=C(c2ccccc2)N1 (configuration not stated),3.6
COc1ccc2c(c1)[nH]c1c(=O)n(CCC3=CCCCC3)cnc12,i
Cc1ccc2cc3cc(C(=O)N(CC(=O)NC4CCCC4)c4cccc(C)c4C)sc3nc2c1,0.5
CCN(CC)c1ccc(N=Cc2c(O)n(CCC3=CCCCC3)c(=O)[nH]c2=O)cc1,i
O=C(COC(=O)Cc1ccsc1)NC1CCCCCC1,i
CS(=O)(=O)N(CC(=O)Nc1ccccc1C(=O)NCc1ccco1)c1ccc2c(c1)OCCO2,0.7
COc1ccccc1N1CCN(C(=O)CSc2nc3ccccc3o2)CC1,1.6
COc1ccc(N(CC(=O)Nc2ccc(C)c(C)c2)S(=O)(=O)c2c(C)n[nH]c2C)cc1,i
CCC(=O)C1=C(N2CCCC2)CC(C)(C)CC1=O,0.2
Cc1ccc(-n2ncc3c(=O)[nH]cnc32)c(C)c1,0.2
O=C(Oc1ccc2c(=O)c(Oc3ccc4ccccc4c3)coc2c1)c1cncc(Br)c1,0.4
COC(=O)c1cc2ccsc2n1CC(=O)Nc1ccc(N(C)C)cc1,0.1
C=CCn1c(SCc2ccc(Cl)cc2)nc2c1c(=O)[nH]c(=O)n2C,2.1
Cc1ccnc(NC(=S)NC(=O)/C=C/c2ccco2)c1,0.2
O=S(=O)(c1ccc(N2CCN(S(=O)(=O)c3ccc4c(c3)OCCO4)CC2)nc1)N1CCCC1,i
COCCn1c(-c2ccccc2)nc2oc3ccccc3c(=O)c2c1=O,i
O=C(Nc1nc2ccccc2n1CCN1CCOCC1)c1cn(-c2ccccc2)nc1-c1ccccc1,i
O=c1[nH]c(=O)n(-c2cccc(Cl)c2)c(O)c1C=NCCCN1CCOCC1,i
CC(=O)c1ccc(-c2nc3ccccc3n2C)o1,0.5
Cc1ccc(-n2nnnc2SCC(=O)c2ccc3c(c2)NC(=O)CO3)c(C)c1,0.3
Nc1nc(C2C(=O)CCCC2=O)cs1,i
O=c1c2[nH]c3ccc(Cl)cc3c2ncn1Cc1ccccn1,i
CCOc1ccccc1C(=O)Nc1cc(C(=O)NCCc2ccccc2)ccc1Cl,0.3
CCOC(=O)c1cnn(Cc2ccccc2Cl)c1N,i
CCN1C(=O)/C(=C\N2CCN(C)CC2)SC1=S,i
COC(=O)CN(C(=O)CSc1nnc(-c2cccc(OC)c2)o1)c1ccc(OC)cc1,i
c1ccc(-c2nn3c(-c4ccco4)nnc3s2)nc1,9.4
O=C(N/N=C/C=C/c1ccccc1)c1cccc(Br)c1,i
Cc1ccc(S(=O)(=O)N2CCCC2C(=O)NCc2ccco2)cc1 (configuration not stated),i
CC1CCC(C(=O)NC(C(=O)N2CCN(c3ccccn3)CC2)C(C)C)CC1 (configuration not stated),0.6
CC1NC(=O)NC1CCCCC(=O)O (configuration not stated),i
COC(=O)N/N=C(\C)c1ccccc1Br,0.3
O=C(NCc1ccncc1)c1ccc(Cl)c(S(=O)(=O)N2CCOCC2)c1,i
COc1cc(OC)c(/C=N/NC(=O)c2ccc([N+](=O)[O-])cc2)cc1Br,i
O=C(COC(=O)C(Cc1ccccc1)NC(=O)c1ccco1)NC1CC1 (configuration not stated),2.7
O=C(Cc1nn[nH]n1)NCc1ccccc1Cl,0.0
O=C(c1ccncc1)C12CN3CN(CN(C3)C1)C2,i
COc1ccc(OC)c(CC(=O)O)c1,i
Cc1cc(C)nc(NS(=O)(=O)c2ccc(NC(=S)NC(=O)C(C)(C)C)cc2)n1,2.5
O=C1[C@@H]2[C@H](C(=O)N1n1cnnc1)[C@H]1C=C[C@@H]2C1,0.7
COc1ccc(C2C(C(=O)OC(C)C)=C(C)N=c3s/c(=C\c4cccs4)c(=O)n32)cc1 (configuration not stated),1.5
CCCOC(=O)c1ccc(NC(=O)CCC(=O)OCC)cc1,0.3
COc1ccc(-c2nc(C#N)c(NCCCN(C)C)o2)cc1OC,i
N#CCSc1n[nH]c2nc3c(c(=O)n12)C1(CCCC1)Cc1ccccc1-3,1.6
COc1cc(C(C[N+](=O)[O-])c2c(C)[nH]c3ccccc23)cc(OC)c1OC (configuration not stated),0.8
C/C(=C1/SC(N2CCCC2)=NC1=O)c1ccc(Br)cc1,0.8
Cc1cccc(C)c1-n1c(C)cc(/C=N/NC(=O)c2ccncc2)c1C,3.7
COc1ccc(N2C(=O)CN=C2Nc2cccc(C)c2C)cc1OC,0.8
O=C(c1ccccc1)N1CCN(C(=O)c2ccccc2)C1c1ccccc1,0.2
COc1ccc(-c2noc(CSc3nc(-c4ccccc4)cc(=O)[nH]3)n2)cc1,i
CC1(c2ccco2)NC(=O)NC1=O (configuration not stated),i
Cc1nc2ccccc2n1/N=C/c1cccnc1,0.2
CCN(CC)C(=O)CSc1nnc(-c2ccc(F)cc2)n1N,0.1
CCOC(=O)C1CCN(Cc2ccc(F)cc2F)CC1,i

# Taken from above.
# Reading for `N#CCSc1n[nH]c2nc3c(c(=O)n12)C1(CCCC1)Cc1ccccc1-3` under H5N1 CPE: 1.6
# Reading for `CS(=O)(=O)N(CC(=O)Nc1ccccc1C(=O)NCc1ccco1)c1ccc2c(c1)OCCO2` under H5N1 CPE: 0.7

# Next structures follow.
SMILES,H5N1 CPE
CCc1ccccc1NC(=O)N[C@@H](C)C(=O)O,i
COc1ccc(Oc2nccc(-c3ccc(F)cc3)c2C#N)cc1,i
Cc1ccc(C)c(/C(O)=C2\C(=O)C(=O)N(CCCN3CCOCC3)C2c2cccnc2)c1 (configuration not stated),i
CCC(Sc1nccn1C)C(=O)Nc1nnc(C)s1 (configuration not stated),1.2
Fc1ccc(NCc2ccccc2F)cc1Cl,i
Cn1c(=O)[nH]c(=O)c2c1nc(NCc1ccco1)n2CCCc1ccccc1,3.4
Cc1cccc(NC(=O)C2CCCN(S(=O)(=O)c3cccc4nsnc34)C2)c1 (configuration not stated),i
CCOc1c(CNCCN2CCOCC2)cccc1OC,i
COc1cc(C(=O)N2CCN(C(=O)C3CC3)CC2)cc(OC)c1OC,i
O=C(c1ccco1)N1CCN(c2nc3ccsc3c(=O)s2)CC1,4.4
CCCc1cc(=O)n2[nH]c(-c3ccc(OC)cc3)nc2n1,i
CN1CCCN(C(=O)c2ccc(Cl)c(S(=O)(=O)N(C)c3ccccc3)c2)CC1,i
CCc1ccc(S(=O)(=O)Nc2ccc(-c3nc4cccnc4s3)cc2)s1,1.9
CC1(C)CC(=O)c2sc(NC(=O)CN3CCOCC3)nc2C1,i
O=[N+]([O-])c1ccc(N2CCOCC2)cc1NCc1ccccc1,0.2
COc1ccc(CCN2CC(C(=O)O)CC2=O)cc1 (configuration not stated),0.2
CC1CCC2(CC1)NC(=O)N(CC(=O)Nc1nc(-c3ccc(F)cc3)cs1)C2=O (configuration not stated),0.0
CC(=O)Cc1nsc(NC(=O)c2ccc(COc3ccccc3)o2)n1,i
O=C(NCc1cccnc1)C1CC(=O)N(c2ccc(Cl)cc2)C1 (configuration not stated),i
COc1ccc(-c2c3c(=O)n(C)c(=O)n(C)c3cn2C2CCCCC2)cc1,0.5
CCOc1ccc2nc(Nc3nc(CSc4nnnn4-c4ccccc4)cc(=O)[nH]3)nc(C)c2c1,0.4
Cn1c(=O)c(=O)n(C)c2cc(S(=O)(=O)NCCc3ccccc3)ccc21,1.3
Cn1c(NCc2ccco2)nc2c1c(=O)n(Cc1ccc(Cl)cc1Cl)c(=O)n2C,i
Cc1cc2ccccc2n1CCNC(=O)C(C)C,i
Cc1cc(C(=O)NCCC2=CCCCC2)c(C)o1,1.1
CCOC(=O)c1cc(C(=O)OCC)c2cccc(C)n2c1=O,2.2
Nc1c(C(=O)N2CCOCC2)sc(=S)n1-c1ccccc1,0.6
CCC(=O)c1c(O)n(C2CCCCCC2)c(=O)[nH]c1=O,i
Oc1ccc(-c2nc3cnccn3c2Nc2ccc3c(c2)OCCO3)cc1,1.2
COc1ccc(OC)c(CN2CCN(C(=O)c3cccs3)CC2)c1,0.6

# By substructure: the entries above with a thiophene ring, fused or not
SMILES,H5N1 CPE
Cc1ccc2cc3cc(C(=O)N(CC(=O)NC4CCCC4)c4cccc(C)c4C)sc3nc2c1,0.5
O=C(COC(=O)Cc1ccsc1)NC1CCCCCC1,i
COC(=O)c1cc2ccsc2n1CC(=O)Nc1ccc(N(C)C)cc1,0.1
COc1ccc(C2C(C(=O)OC(C)C)=C(C)N=c3s/c(=C\c4cccs4)c(=O)n32)cc1 (configuration not stated),1.5
O=C(c1ccco1)N1CCN(c2nc3ccsc3c(=O)s2)CC1,4.4
CCc1ccc(S(=O)(=O)Nc2ccc(-c3nc4cccnc4s3)cc2)s1,1.9
COc1ccc(OC)c(CN2CCN(C(=O)c3cccs3)CC2)c1,0.6

# (list continues)
SMILES,H5N1 CPE
C=CCn1c(SCC(=O)N2CCN(c3ccccc3)CC2)nnc1-c1ccco1,0.0
CCCCN1C(=O)C2(NNc3ccccc3O2)c2ccccc21 (configuration not stated),i
Cc1ccc(OCC(O)CN2CCN(Cc3ccc4c(c3)OCO4)CC2)c(C)c1 (configuration not stated),i
CSCCC(NC(=O)c1cc(CC(C)C)oc1C)C(=O)O (configuration not stated),i
COc1cc(NC(=O)C2CCCCC2)c2ncccc2c1,i
COc1ccccc1NC(=O)N1CCc2[nH]c3ccc(Cl)cc3c2C1,i
OCCSc1nncn1/N=C/c1c[nH]c2ccccc12,i
CC1=NN(c2ccccc2)C(=O)/C1=C\c1c(C)[nH]n(-c2ccccc2)c1=O,0.4
O=C(NNC(=O)c1ccccc1Cl)c1cccs1,2.9
Clc1cccc(Cl)c1CSc1cc2c(nn1)-c1ccccc1CC2,1.4
CN1C(=O)c2ccccc2C(C(=O)NCCCN2CCCC2)C1c1c[nH]c2ccccc12 (configuration not stated),i
O=C(CSc1ncc(C(F)(F)F)cc1Cl)N1CCN(S(=O)(=O)c2ccc3ccccc3c2)CC1,i
Cc1cc(C)nc(NC(=O)CN2C(=O)c3ccccc3C2=O)n1,i
CC(=O)N1CCN(C(=S)c2ccc(N(C)C)cc2)CC1,i
O=C(NC(C(=O)NCCN1CCOCC1)C12CC3CC(CC(C3)C1)C2)C1CCCCC1 (configuration not stated),i
Cc1ccc(-c2csc3nnc(SCC(=O)Nc4nsc(-c5ccccc5)n4)n23)cc1,i
COc1ccc(S(=O)(=O)Nc2ccc3c(c2)OCO3)cc1OC,i
CC(NC(=O)NC1CCCCC1)C(c1cccs1)N1CCN(Cc2ccccc2)CC1 (configuration not stated),i
CN1CCCc2cc3c(C(F)(F)F)cc(=O)oc3nc21,i
C#CC(C)(C)NC(=O)c1ccccc1OC,0.2
COc1ccc(S(=O)(=O)N(C)CC(=O)NC2CCCC2)cc1Cl,0.5
Cc1cc(NC(=O)CSc2ccc3ccccc3c2)no1,0.9
OC(COc1cccc(OCC(O)CN2CCOCC2)c1)CN1CCOCC1 (configuration not stated),1.0&0.2
CC(C)C(=O)Nc1ccc(Nc2ccccc2)cc1,i
COc1ccc(/C=C(\C#N)c2nc3ccc(C)cc3[nH]2)cc1Oc1ccc(C(F)(F)F)cc1[N+](=O)[O-],i
CCOC(=O)c1c(C)nc(C)c(C(=O)OCC)c1-c1ccc(OC)cc1,0.6
O=C1CCC(=O)N1CN(C(=O)c1ccco1)c1ccccc1,i
CC(C)(C)c1cc(NCCCn2ccnc2)n2ncc(-c3ccc(Cl)cc3)c2n1,i
CN(C)c1ccc(C2=NOC(CN3C(=O)c4ccccc4S3(=O)=O)C2)cc1 (configuration not stated),i
CC(C)COc1ccc(C(=O)NCc2ccco2)cc1,i
O=C1CC(NCc2ccc3c(c2)OCO3)C(=O)N1CCc1ccccc1 (configuration not stated),i
O=c1oc(-c2cccs2)nc2ccccc12,i
COc1cccc(OCCn2ccnc2)c1,2.5
CC1(C)Oc2ccc(C(=O)NC3CC3)cc2N(CC(=O)N2CCOCC2)C1=O,0.5
COc1ccc(Br)cc1/C=N/NC(=O)c1nc(-c2ccccc2)n2c1CCCCC2,0.2
O=C(Cc1c(F)cccc1Cl)Nc1ccon1,1.2
O=C(O)Cn1cc(C(=O)C2CC2)c2ccccc21,0.2
COC(=O)CN(c1ccc(C)cc1)S(=O)(=O)c1c(C)[nH]c(=O)[nH]c1=O,0.1
CCN=c1sc(C(=O)NCCc2ccccc2)cc(=O)n1CC,i
CC(/C=N/N1CCN(c2ccccc2)CC1)=C\c1ccco1,i
Cc1cccc(-c2c3c(=O)n(C)c(=O)n(C)c3cn2-c2ccccc2O)c1,i
CN(C)c1ccc(C(=S)NCc2ccco2)cc1,i
Cc1cc(C)cc(N2C(=O)CC(Sc3nnnn3-c3ccccc3)C2=O)c1 (configuration not stated),2.9
COc1ccc(NC(=O)c2cncc(Br)c2)c(S(=O)(=O)N2CCOCC2)c1,i
COc1ccccc1N(C)S(=O)(=O)c1ccc(C(=O)N2CCC(C(N)=O)CC2)cc1,1.1
c1ccc(Nc2nc(N3CCCCC3)nc(N3CCNCC3)n2)cc1,i
CCN(CC)CCn1c(SCC(=O)NCc2ccco2)nc2c(sc3ccccc32)c1=O,0.6
Cn1cccc1Cc1nnc(SCC(=O)N2CCCC2)n1CCc1ccccc1,2.3
O=C(NCCSc1ccc(Cl)cc1)c1ccco1,i
COC(=O)c1ccc(NC(=O)CSc2nnc(CNc3ccc(F)cc3)n2C)cc1,i

# Three compounds already listed, sorted by heavy-atom count, largest number first:
SMILES,H5N1 CPE
CCN(CC)CCn1c(SCC(=O)NCc2ccco2)nc2c(sc3ccccc32)c1=O,0.6
COc1ccccc1N(C)S(=O)(=O)c1ccc(C(=O)N2CCC(C(N)=O)CC2)cc1,1.1
c1ccc(Nc2nc(N3CCCCC3)nc(N3CCNCC3)n2)cc1,i

# This is a subset; the hit share may differ from the screen's.
